Source: PubChem BioAssay
rRNA inh HTS = reduced GFP signal of wild-type E. coli, primary screen, bacterial rRNA inhibitor project, GFP/RFP fluorescence, OD600, single point | E. coli WT GFP vs humanized-ribosome RFP mutants, 24 h; hits give low values; DMSO median 0, no signal -100 | GFP signal change (wild-type ribosome), % (concentration not given with the values) | 1.6% of 350,000 active | AID 720706, 2013;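 active means significant combined selectivity score with lowered wild-type GFP, culture density cut under 30%, mutant RFP and density less affected; inactive means any of these conditions unmet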; further: one replicate is shown; some compounds called inactive have numbers as strong as hits
FGF22 binding = binders of human FGF22 protein, primary screen, FGF22 synaptogenesis inhibitor project, biophysical, thermal shift, single point. Fibroblast growth factor 22 (Homo sapiens), Q9HCT0. recombinant FGF22 thermal shift, SYPRO orange fluorescence; percent of sucrose octasulfate shift, DMSO zero. calls only at 9.99 µM. 1.5% of 340,000 active. AID 651658, 2012;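 active means melting point raised past a set limit in the mean and every replicate; three in four hits are not shown here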
Target sequence (Q9HCT0 whole entry, looked up): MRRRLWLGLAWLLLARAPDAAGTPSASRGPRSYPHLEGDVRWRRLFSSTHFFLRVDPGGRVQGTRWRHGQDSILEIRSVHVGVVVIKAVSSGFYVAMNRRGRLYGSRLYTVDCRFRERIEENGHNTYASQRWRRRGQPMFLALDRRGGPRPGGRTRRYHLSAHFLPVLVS
UCH37 DUB inh = inhibitors of human UCH37 deubiquitinase, primary screen, biochemical, Ub-AMC cleavage, fluorescence | Ubiquitin carboxyl-terminal hydrolase isozyme L5 (Homo sapiens), Q9Y5K5 | inhibition, % (concentration not given with the values) | 0.33% of 330,000 active | AID 588478, 2011 | purified proteasome/UCH37;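 active means mean of two replicates above 20%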;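 further: 0% = compound-free wells with enzyme and 100% = wells lacking proteasome; stock transfer was 100 nL into about 20 µL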
Target sequence (Q9Y5K5 whole entry, looked up): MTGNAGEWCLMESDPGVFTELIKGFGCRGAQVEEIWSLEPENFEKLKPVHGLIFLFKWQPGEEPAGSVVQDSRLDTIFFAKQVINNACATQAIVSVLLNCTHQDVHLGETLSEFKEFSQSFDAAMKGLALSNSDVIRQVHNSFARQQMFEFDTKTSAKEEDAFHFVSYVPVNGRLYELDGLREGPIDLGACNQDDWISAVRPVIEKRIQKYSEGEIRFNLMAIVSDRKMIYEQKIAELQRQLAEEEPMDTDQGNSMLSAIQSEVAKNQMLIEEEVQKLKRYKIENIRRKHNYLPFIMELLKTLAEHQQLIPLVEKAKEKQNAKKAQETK
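Material: human UCH37 enzyme supplied as purified proteasome complex. Measure: % inhibition of Ub-AMC cleavage fluorescence. Medium: pH 7.4 Tris-HCl (50 mM) with ovalbumin, ATP-MgCl2, DTT. Times: 30 min preincubation with enzyme, 25 min cleavage at room temperature. Detection: AMC fluorescence intensity at 355/460 nm.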
T cruzi inh = inhibitors of intracellular T. cruzi growth, primary screen, luminescence, NIH3T3 host cells; T. cruzi beta-gal in NIH3T3, 90 h; inhibition, % (concentration not given with the values); 1.4% of 300,000 active;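 active means mean inhibition across valid replicates above about 55%, limit read from the data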;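 further: signal also drops with host cell toxicity which is not excluded here; 0% = plate median of DMSO wells and 100% = zero luminescence signal; higher percent means less beta-gal luminescence so fewer parasites; stock transfer was 50 nL into about 50 µL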
Beta cell apopt = inhibitors of cytokine-induced beta cell apoptosis, primary screen, luminescence | 0.8% of 300,000 active | INS-1E cytokine-induced death, ATP luminescence, 48 h; percent of positive-control rescue, neutral wells zero | protection from apoptosis, % (test concentration not listed);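 active means all replicates at 75% or more, or half of them and the mean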;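 further: 0% = cytokine-treated negative control wells and 100% = positive control rescue; higher means more ATP so stronger rescue from cytokine killing; wells of about 40 µL received 100 nL stock; the first replicate is given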
Ecoli growth = E. coli growth inhibition, primary screen, OD600. OD600 absorbance (test concentration not listed). 0.21% of 330,000 active. Escherichia coli growth, 23 h; hits give low values. AID 1053175, 2014;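 active means OD600 absorbance below the run mean of sample wells minus 3.6 SD, in any replicate, cut at about 0.56 in these data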;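 further: stock transfer was 300 nL into about 60 µL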
Bfl-1 A1 inh = caspase 3/7 activation in MEF A1-2A-BIM cells, primary screen, A1 inhibitor project, cell-based, luminescence, HTS. Caspase-Glo 3/7 luminescence, 3 h; percent of clofoctol response, vehicle zero. caspase activation, % (no concentration beside the values). 0.066% of 330,000 active;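 active means over half of replicate activation scores above 10%, or exactly half above 10 with the replicate mean above 10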;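 further: wells of about 30 µL received 50 nL stock; many hits fall short of the cut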
AF4-AF9 inh = inhibitors of AF4 peptide binding to AF9, primary screen, biochemical, AlphaScreen, biotin-AF4 peptide, FLAG-AF9, single point; AID 651704, 2012; inhibition, % at 10 µM; 0.47% of 350,000 active;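 active means every replicate reaching a set inhibition limit, whatever the replicate mean, cut at about 25% in these data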;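 further: 0% = plate neutral control median and 100% = total signal loss; the record names both 10 and 1 µM as test concentration; the first replicate is given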
Target sequence (P42568 whole entry, looked up): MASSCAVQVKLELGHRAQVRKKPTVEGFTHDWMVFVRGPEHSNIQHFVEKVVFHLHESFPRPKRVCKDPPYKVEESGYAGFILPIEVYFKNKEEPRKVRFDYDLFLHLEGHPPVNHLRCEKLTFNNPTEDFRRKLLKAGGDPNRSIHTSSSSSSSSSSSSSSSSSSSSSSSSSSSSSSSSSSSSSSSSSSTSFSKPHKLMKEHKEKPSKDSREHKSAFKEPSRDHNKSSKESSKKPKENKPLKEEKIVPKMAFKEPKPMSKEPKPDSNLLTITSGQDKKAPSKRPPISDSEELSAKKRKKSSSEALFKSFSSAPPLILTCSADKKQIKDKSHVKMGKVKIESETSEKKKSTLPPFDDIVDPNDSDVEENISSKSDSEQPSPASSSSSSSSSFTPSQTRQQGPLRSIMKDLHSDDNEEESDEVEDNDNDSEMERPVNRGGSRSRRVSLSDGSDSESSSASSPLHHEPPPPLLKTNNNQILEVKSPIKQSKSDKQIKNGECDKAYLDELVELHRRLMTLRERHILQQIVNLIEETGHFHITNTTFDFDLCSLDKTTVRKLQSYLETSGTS
rRNA inh HTS OD600 = further read-out of rRNA inh HTS, marked with its call; OD600 change, %; measured here: OD600 growth;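 optical density of the mix in the first replicate; 0 = DMSO median and -100 = no signal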
rRNA inh HTS RFP = second read-out of rRNA inh HTS, no call of its own (marks repeat the call); RFP signal change, %; measured here: RFP humanized mutant strains;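 first replicate; 0 = DMSO median and -100 = no signal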
Numbers without * were called inactive; i = inactive; x = not tested or not shown; & = joins results of further samples. Not all compounds are listed; the hit share may differ from the screen's.

SMILES | rRNA inh HTS | rRNA inh HTS OD600 | rRNA inh HTS RFP | FGF22 binding | UCH37 DUB inh | T cruzi inh | Beta cell apopt | Ecoli growth | Bfl-1 A1 inh | AF4-AF9 inh
COc1cccc(C(C(=O)NC2CCCC2)N(C(=O)c2ccco2)c2cccc(C(C)=O)c2)c1OC (centres undefined) | 1 | 2 | 0.5 | i | 1.7 | 13 | 1 | 0.65 | 0.0 | 1.9
COc1cc(N)c(Cl)cc1C(=O)OCC(=O)N1CCc2ccccc21 | 6 | 12 | 1.7 | i | 2.7 | x | 0 | 0.72 | 0.7 | 0.9
CCCCCNC(=O)c1ccc(NS(=O)(=O)c2ccc3[nH]c(=O)[nH]c3c2)cc1 | 6 | 0 | -1.8 | i | 1.1 | -18 | -2 | 0.69 | 0.5 | -1.1
CCC(c1nnnn1C1CCCC1)N1CCN(c2ccccc2)CC1 (centres undefined) | x | x | x | x | 3.9 | 4 | -1 | 0.77 | -0.1 | x
CCOC(=O)c1c(NC(=O)CSc2c[nH]c3ccccc23)sc2c1CCC2 | 2 | 1 | 1.6 | i | 4.1 | 16 | 6 | 0.76 | 0.2 | 0.5
CCOc1c(Cl)cc(CNc2ccc(N3CCCC3)cc2)cc1OC | -5 | 7 | 16 | i | 0.1 | 63* | x | 0.69 | x | 23
Cc1cc([N+](=O)[O-])ccc1NC(=O)c1sc2ncn(CC(=O)N3CCOCC3)c(=O)c2c1C | 16 | 12 | -0.5 | i | 2.7 | -15 | -3 | 0.64 | -3.2 | -0.1
C[C@@]12CC(=O)NC1N(C(=O)c1cccc(C(F)(F)F)c1)C(c1ccccc1OC(=O)c1cccc(C(F)(F)F)c1)C2 (some centres undefined) | 0 | -25 | 7.2 | x | 3.0 | 3 | x | 0.73 | 1.2 | x
COc1cccc(C(=O)C2CCCN(Cc3cn[nH]c3C3CCCCC3)C2)c1 (centres undefined) | 0 | -4 | 1.0 | i | -1.1 | 20 | -7 | 0.7 | 0.2 | 4.2
O=C(Cc1ccc([N+](=O)[O-])cc1)Nc1nccs1 | 3 | 7 | 2.0 | i | 5.5 | -2 | 0 | 0.64 | 1.2 | -1.8
CC1(C)N=C(N)N=C(N)N1c1ccccc1 | x | x | x | x | -1.3 | -4 | 18 | 0.75 | -0.1 | x
CC(=O)N1N=C(c2ccc(NS(C)(=O)=O)cc2)CC1c1ccc2nccnc2c1 (centres undefined) | 9 | -8 | 0.3 | i | 6.5 | -1 | -4 | 0.71 | 0.8 | 0.2
O=C(C(O)c1ccccc1)N1N=C(c2ccccc2)CC1(O)C(F)(F)F (centres undefined) | -3 | -2 | 3.1 | i | x | -10 | -13 | x | 0.8 | -1.9
COc1cc2c(cc1OC)CN(C(=O)CCc1c[nH]c3ccccc13)[C@H](C(=O)O)C2 | 12 | 9 | 0.9 | i | 2.3 | -7 | -4 | 0.67 | 0.1 | -0.4
O=C(CCCc1ccccc1)Nc1ccccc1[N+](=O)[O-] | -2 | -9 | 2.1 | i | -0.2 | -1 | 3 | 0.66 | -0.1 | 7.0
CC(=O)NCCc1nc2ccccc2n1CCc1ccccc1 | 4 | 0 | -0.1 | x | 8.1 | -4 | x | 0.7 | x | 0.3
Cc1c(C#N)c(N=CN(C)C)c(C(=O)c2ccc(Br)cc2)n1-c1ccc(Cl)cc1 | x | x | x | x | 4.1 | 57* | 10 | 0.71 | 0.6 | x
O=C1c2ccccc2C(=O)N1CCCc1nc(-c2cccnc2)no1 | x | x | x | x | 1.3 | -7 | -7 | 0.7 | -1.1 | x
O=c1[nH]c(Nc2ccccn2)cc2ccccc12 | 8 | 16 | 4.7 | i | x | -1 | -2 | x | 1.3 | 1.5
CC1CCCN(C(=O)COC(=O)c2ccc3[nH]c4c(c3c2)CCCC4)C1 (centres undefined) | 0 | 2 | 2.5 | i | 1.0 | 8 | 2 | 0.68 | -1.2 | -0.4
CC(c1ccccc1)N1CCC(CNC(=S)Nc2cccc(Cl)c2)C1 (centres undefined) | 2 | -6 | 4.5 | i | 3.9 | 50 | -5 | 0.64 | 1.2 | 4.3
Cc1ccc(C)c(SCC(=O)Nc2cccc(S(=O)(=O)N3CCOCC3)c2)c1 | 1 | 0 | -1.9 | i | 1.9 | x | x | 0.67 | x | -24
Cc1nn2c3ccccc3nc2c2ccccc12 | x | x | x | x | -24 | 0 | 13 | 0.71 | 0.8 | x
O=C(Nc1ccc(Oc2cccc(C(F)(F)F)c2)nc1)c1ccco1 | -1 | 1 | 0.2 | i | 2.3 | 10 | 3 | 0.72 | 0.7 | -1.5
CC1=CCC2C(=O)N(c3nc4ccccc4n3C)C(=O)C2C1 (centres undefined) | x | x | x | x | -0.1 | -23 | -5 | 0.69 | -0.1 | x

Full records as entered above. Values in the order: rRNA inh HTS	rRNA inh HTS OD600	rRNA inh HTS RFP	FGF22 binding	UCH37 DUB inh	T cruzi inh	Beta cell apopt	Ecoli growth	Bfl-1 A1 inh	AF4-AF9 inh
`CC1=CCC2C(=O)N(c3nc4ccccc4n3C)C(=O)C2C1` (centres undefined) is entered as x	x	x	x	-0.1	-23	-5	0.69	-0.1	x
`O=C(C(O)c1ccccc1)N1N=C(c2ccccc2)CC1(O)C(F)(F)F` (centres undefined) is entered as -3	-2	3.1	i	x	-10	-13	x	0.8	-1.9

(next part)
SMILES | rRNA inh HTS | rRNA inh HTS OD600 | rRNA inh HTS RFP | FGF22 binding | UCH37 DUB inh | T cruzi inh | Beta cell apopt | Ecoli growth | Bfl-1 A1 inh | AF4-AF9 inh
N#Cc1cccc(S(=O)(=O)NCCOc2ccccc2F)c1 | -2 | -9 | 1.5 | i | 0.4 | x | -6 | 0.7 | -0.6 | 1.6
Cc1cc(C(=O)NC2CC(C)(C)Cc3c2cnn3-c2cccc(F)c2)nn1C (centres undefined) | 0 | 4 | -3.4 | i | 0.7 | 6 | x | 0.7 | 0.3 | -2.8
O=C(CSc1nnc(Cc2ccccc2)n1-c1cccc(Cl)c1)N1CCOCC1 | x | x | x | x | 2.1 | -2 | 2 | 0.71 | 1.1 | x
Cc1noc(C)c1COC(=O)[C@@H](NC(=O)c1ccccc1)C(C)C | 20 | 16 | 3.3 | i | 2.9 | -31 | 0 | 0.67 | 0.3 | -18
COc1ccc(Nc2cc(NCCCO)c([N+](=O)[O-])c3nonc23)cc1 | 4 | 6 | -0.6 | i | 11 | 17 | 0 | 0.74 | 1.0 | 0.4
O=C1CN(C(=O)c2cccs2)c2ccccc2N1 | x | x | x | x | 3.7 | 2 | -2 | 0.69 | 3.1 | x
CCCCCOC(=O)c1[nH]c2c(c1C)C(=O)CC(c1ccco1)C2 (centres undefined) | x | x | x | x | 0.3 | 17 | -3 | 0.78 | 0.9 | x
CCCCn1c(-c2ccc(F)c(F)c2)nc2cc3[nH]c(=O)c(C(C)C)nc3cc21 | x | x | x | i | -45 | 18 | 13 | 0.72 | 0.3 | -10
CSCCC(NC(=O)c1ccco1)C(=O)N1CCN(C(c2ccccc2)c2ccccc2)CC1 (centres undefined) | -14 | -13 | 2.0 | i | 0.3 | x | x | 0.71 | x | 5.2
CCc1ccc2nc(N(CCN(C)C)C(=O)/C=C/c3cccs3)sc2c1 | x | x | x | x | -0.2 | 12 | 8 | 0.7 | 0.1 | x
Cc1ccsc1/C=N/n1c(-c2ccccc2)n[nH]c1=S | -1 | -1 | 1.8 | i | x | -14 | -5 | x | -0.6 | -9.0
COc1ccc(OC)c(NC(=O)c2cccc(NC(=O)c3ccccc3C(=O)O)c2)c1 | 9 | 5 | 2.2 | i | 1.9 | -5 | -3 | 0.68 | 1.0 | -0.2
CCS(=O)(=O)C1=NSC2=NC(=O)/C(=C\c3ccc(OC(=O)c4ccco4)c(OC)c3)C(=N)N21 | 1 | 4 | 1.2 | x | 13 | -14 | -4 | 0.67 | 0.9 | 1.8
CN(CC(=O)NCc1ccccc1)CC(=O)Nc1ccc(Cl)c(C(F)(F)F)c1 | -58 | -79 | -17 | i | 2.4 | x | -6 | 0.66 | 0.0 | -2.0
NNC(=O)CN1C(c2ccc(Br)cc2)=Nc2ccc(Br)cc2C1c1ccccc1 (centres undefined) | x | x | x | x | 5.3 | 11 | -2 | 0.69 | 0.1 | x
Nc1nonc1C(=O)NCCNCc1ccccc1OCc1ccccc1F | x | x | x | x | 7.2 | 10 | 3 | 0.64 | -0.5 | x
CS(=O)(=O)N(Cc1ccccc1)c1ccccc1C(=O)N1CCN(c2ccccc2)CC1 | x | x | x | x | 2.4 | -7 | 0 | 0.68 | -0.3 | x
CCCCc1ccc(Nc2ncccc2C#N)cc1 | x | x | x | x | -0.4 | -9 | 9 | 0.69 | 1.1 | x
NC(=NCCc1ccccc1)NS(=O)(=O)c1ccccc1F | 0 | 3 | -1.9 | i | -1.0 | -17 | -11 | 0.68 | 0.3 | 0.0
Cc1cc(C)c2c(n1)nn1c(N3CCN(c4ccccc4C)CC3)cc(C)nc21 | x | x | x | x | -68 | x | -6 | 0.72 | 0.0 | x
CCOc1ccc(C2CC(c3ccc(F)cc3)n3ncnc3N2)cc1 (centres undefined) | 14 | 5 | 4.3 | i | 0.6 | 16 | -6 | 0.72 | 0.4 | 1.4
O=C(O)CCc1ccc(-c2cccs2)n1Cc1ccco1 | x | x | x | x | -7.8 | -27 | -4 | 0.67 | 0.4 | x
CC(C#N)(NC(=O)CN1CCN(S(=O)(=O)c2ccc(Br)cc2Cl)CC1)C1CC1 (centres undefined) | x | x | x | i | 1.5 | x | -7 | 0.7 | -1.3 | 1.7
COc1ccc(S(=O)(=O)Nc2ccc3c(c2)C(=O)N([C@H](C)CO)C[C@H](C)[C@@H](CN(C)S(=O)(=O)c2ccc(F)cc2)O3)cc1 | -1&8 | -7&0 | 2.3&-3.2 | i | 4.8 | x | 0 | x | -0.9 | 2.9&2.2
CC1(C(=O)N(CC(=O)NC2CCCC2)Cc2ccc(Cl)cc2)CC(=O)N=C2C=CC=CN21 (centres undefined) | 24 | 21 | 2.5 | i | i | -1 | 0 | 0.66 | -0.5 | -1.0

In the list so far, these have a CF3 group.
SMILES | rRNA inh HTS | rRNA inh HTS OD600 | rRNA inh HTS RFP | FGF22 binding | UCH37 DUB inh | T cruzi inh | Beta cell apopt | Ecoli growth | Bfl-1 A1 inh | AF4-AF9 inh
C[C@@]12CC(=O)NC1N(C(=O)c1cccc(C(F)(F)F)c1)C(c1ccccc1OC(=O)c1cccc(C(F)(F)F)c1)C2 (some centres undefined) | 0 | -25 | 7.2 | x | 3.0 | 3 | x | 0.73 | 1.2 | x
O=C(C(O)c1ccccc1)N1N=C(c2ccccc2)CC1(O)C(F)(F)F (centres undefined) | -3 | -2 | 3.1 | i | x | -10 | -13 | x | 0.8 | -1.9
O=C(Nc1ccc(Oc2cccc(C(F)(F)F)c2)nc1)c1ccco1 | -1 | 1 | 0.2 | i | 2.3 | 10 | 3 | 0.72 | 0.7 | -1.5
CN(CC(=O)NCc1ccccc1)CC(=O)Nc1ccc(Cl)c(C(F)(F)F)c1 | -58 | -79 | -17 | i | 2.4 | x | -6 | 0.66 | 0.0 | -2.0
